# Platelet DG rel = platelet dense granule release activity | human platelet-rich plasma, SFLLRN dense granule ATP release, luminescence | inhibition, %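 (compounds screened at 7.5 µM in platelet-rich plasma)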 | hit rate 0.22% among 300,000 | AID 1663;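 active = mean replicate score, as percent of positive control, at or above 50; inconclusive = mean below 50 but at least one replicate at or above 50; inactive = mean and every replicate below 50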
# KLF5 inh = kruppel-like factor 5 inhibition | DLD-1 KLF5 promoter-luciferase reporter, luminescence | inhibition, % at 5 µM | hit rate 0.23% among 290,000 | AID 1700;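 active = inhibition above a per-plate limit of that plate's mean compound inhibition plus 3 SD, cut at about 60% in these data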;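 note: 0% = DMSO wells and 100% = LY294002 at 200 µM; higher means less KLF5 promoter-driven luciferase light; inactives centre near -14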
# HSP90 inh = inhibitors of HSP90 luciferase refolding in rabbit reticulocyte lysate; luciferase refolding luminescence, 3 h; inhibition, % at 5.6 µM; hit rate 0.91% among 290,000;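 active = inhibition above the screen-wide mean plus 3 SD, computed separately per campaign, cut at about 16% in these data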;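 note: 0% = DMSO wells and 100% = 60 µM geldanamycin wells; inhibitors lower the luminescence because luciferase stays unfolded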
# HDAC3 inhib = human HDAC3 inhibition | O15379 | recombinant HDAC3, fluorogenic peptide/trypsin coupled, fluorescence | inhibition, % at 8.3 µM | hit rate 0.15% among 320,000; in the data active = inhibition above about 26%, passing the limit was not always enough; inconclusive = no clear call, values can overlap the other calls
# Target sequence (O15379 whole entry, looked up): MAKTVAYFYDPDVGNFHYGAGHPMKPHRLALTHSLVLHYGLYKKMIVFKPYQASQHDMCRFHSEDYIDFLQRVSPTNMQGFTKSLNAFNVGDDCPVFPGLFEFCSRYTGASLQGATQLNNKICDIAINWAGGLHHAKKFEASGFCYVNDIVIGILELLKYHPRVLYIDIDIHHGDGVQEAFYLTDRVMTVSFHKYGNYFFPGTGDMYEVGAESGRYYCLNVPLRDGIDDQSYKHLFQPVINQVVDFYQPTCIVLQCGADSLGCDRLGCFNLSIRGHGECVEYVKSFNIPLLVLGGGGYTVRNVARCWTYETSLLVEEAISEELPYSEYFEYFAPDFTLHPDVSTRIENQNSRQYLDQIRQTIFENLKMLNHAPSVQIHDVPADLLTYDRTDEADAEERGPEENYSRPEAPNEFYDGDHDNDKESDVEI
# aSyn 5UTR inh = MLPCN primary screen, SNCA 5' untranslated region | AID 1813 | hit rate 0.82% among 300,000 | alpha-synuclein 5'UTR reporter, inhibitor activity | inhibition, % (tested at 7.5 µM); in the data active = inhibition above about 60%; inconclusive = no clear call, values can overlap the other calls;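 note: H4 neuroglioblastoma cells stably carrying SNCA 5'UTR luciferase fusion; 0% = DMSO wells and 100% = positive control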
# HSF1 inh = HSF1 inhibition. NIH3T3-HGL HSE-luciferase, MG132-induced, luminescence 8 h; active compounds read low. hit rate 0.77% among 300,000. activity change, negative = inhibition, % at 7.5 µM (by protocol);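 active = more than half of replicate wells show activity change below -50%, luminescence cut by over half; inconclusive = some wells, but at most half, below -50%; inactive = no replicate well below -50%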;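 note: luciferase reports HSF-1 transcriptional activity via heat shock element; 0% = median of DMSO wells and -100% = zero luminescence signal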
# AI-2 QS mod = Vibrio harveyi AI-2 quorum sensing modulation; hit rate 0.4% among 300,000; activity change, % at 7.5 µM; AID 2094; Vibrio harveyi JMH597 AI-2 luminescence/OD600 ratio, 9 h; active compounds read low; strain lacks LuxN and CqsS sensors; 0 = neutral-control median; in the data active = activity change below about -75%, passing the limit was not always enough; inconclusive = no clear call, values can overlap the other calls;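 note: luminescence divided by OD600 gain over 9 h not by final OD600 alone; inactives centre near 13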
# IEC-6 cytotox = counter-screen for KLF5 inhibitors: cytotoxicity in IEC-6 cells; IEC-6 cytotoxicity, luminescence viability; inhibition, % at 5 µM; hit rate 0.78% among 290,000; in the data active = inhibition above about 22%;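 note: 0% = plate median of test compound wells and 100% = cytotoxic reference compound wells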
# HSF1 activator = increases HSF-1 driven luciferase reporter signal; hit rate 1.7% among 300,000; NIH3T3-HGL HSF-1 luciferase reporter, MG132, 8 h; 100% = twice DMSO control signal; activation, % at 9 µM; AID 504408;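 active = mean replicate activation of at least 50% with a set share of replicates each reaching 50%; inconclusive = only one of those two conditions met; inactive = mean below 50% and too few replicates reaching it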;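 note: 0% = median of the neutral control wells and 100% = twice that signal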
# * marks the source's active call; other numbers are inactive results; ? = inconclusive; · = not tested or not shown; & = joins results of further samples. An excerpt; rates above refer to the full screens.
no.	canonical_smiles	Platelet DG rel	KLF5 inh	HSP90 inh	HDAC3 inhib	aSyn 5UTR inh	HSF1 inh	AI-2 QS mod	IEC-6 cytotox	HSF1 activator
1	O=C(O)c1ccc(OCCn2ccnc2)cc1	-1	-7	-2	-3	9	-2	21	-2	-15
2	Cc1cc(C)n(C2CCCCC2OC(=O)c2ccccc2)n1 (centres undefined)	-8	-14	2	2	11	-1	10	0	4
3	CCC1(c2ccccc2)C(=O)NCNC1=O	-8	-18	-2	-4	-28	-4	12	5	-3
4	C#CCN(C)CCCOc1ccc(Cl)cc1Cl	2	-1	-2	·	-79	6	20	3	15
5	COc1cccc(-c2nc(NC(C)C)c3ccccc3n2)c1O	4	-38	2	16	-19	-3	13	3	18
6	N/C(=N\S(=O)(=O)c1ccc(Cl)s1)c1ccccc1	·	-5	-2	2	10	1	-42	-3	-15
7	CN(C)C/C(Cl)=C(\Cl)c1ccccc1	-2	-12	-1	3	-11	4	-7	-1	19
8	O=C1C(=O)N(Cc2cccnc2)C(c2ccccn2)/C1=C(/O)c1ccc(F)cc1 (centres undefined)	7	-22	-2	5	-7	-1	18	2	5
9	C=CCOC(=O)C1=C(C)NC(SCC(=O)N(CC)CC)=C(C#N)C1c1ccco1 (centres undefined)	-5	-16	5	11	35	16	13	4	14
10	CC(C)[N+](C)(CCOC(=O)C1c2ccccc2Oc2ccccc21)C(C)C	-3	2	2	-5	-5	3	26	-4	-4
11	OCC1OC(n2cnc3c(NC4CCCC4)ncnc32)C(O)C1O (centres undefined)	82*	·	·	-14	2	-6	0	·	-21
12	NS(=O)(=O)c1ccc(NC(=O)Nc2cccc3ccccc23)cc1	-7	-21	-1	·	-23	10	5	5	-2
13	CCN(CC)S(=O)(=O)c1ccc2c(c1)c(C(=O)O)cn2C	2	-7	-2	-4	-9	-9	31	-8	1
14	CCOc1cccc(NC(=O)C2CC(=O)NC(=Nc3ccccc3)S2)c1 (centres undefined)	-6	-1	-2	1	-3	3	0	5	8
15	CCC(c1c(C)n(C)n(-c2ccccc2)c1=O)c1c(C)n(C)n(-c2ccccc2)c1=O	-5	0	4	1	-5	-9	2	7	11
16	Cc1nc2ccccc2nc1N1CCCC1	-2	-4	2	-21	9	1	21	-8	7
17	Cn1c(=O)c2[nH]c(-c3ccc(S(=O)(=O)O)cc3)nc2n(C)c1=O	-4	·	·	-301	-1	0	14	·	-5
18	Nc1ccc(S(=O)(=O)NC(=O)c2ccccc2)cc1	14	-8	2	2	-11	-1	38	-2	6
19	C=C1[C@@H](C)C2[C@H](Cc3ccccc3)NC(=O)[C@]23OC(=O)CC[C@H](O)CCC[C@H](C)C/C=C/[C@H]3[C@@H]1O (some centres undefined)	-3	·	·	·	80*	-18	-5	·	-26
20	COc1cccc(N2CCN(C3CC(=O)N(c4cccc(Cl)c4)C3=O)CC2)c1 (centres undefined)	1	-17	-1	10	10	11	8	-3	20
21	CCCc1nnc(SCc2ccc(OCC)cc2)n1N	-9	-18	3	0	-5	3	20	-2	6
22	Clc1ccc(Cn2c(CN3CCCC3)nc3ccccc32)cc1	-2	3	2	6	14	4	8	-3	12
23	CCCOc1ccc(CSC(CC(=O)O)C(=O)O)cc1 (centres undefined)	0	-10	1	2	3	-2	9	-7	-3
24	CSc1ccc(NC(=O)Nc2cc(C)ccn2)cc1	·	-32	14	4	-19	-6	8	-6	12
25	O=C1OC(c2ccc(O)cc2)(c2ccc(O)cc2)c2ccccc21	2	-6	6	2	6	-6	19	3	-4
26	CCCCSc1nnc2n(CCc3ccccc3)c(=O)c3c4c(sc3n12)COC(C)(C)C4	-8	8	3	5	19	-6	3	0	-7
27	CCN(CC)C(=O)c1ccc(O)c(OC)c1	-3	1	-1	4	0	-2	4	-9	-5
28	CC(C)OC(=O)CC1=NC(=O)CS1	7	-17	0	-6	9	0	28	-1	21
29	O=C(N[C@H](CO)[C@H](O)c1ccc([N+](=O)[O-])cc1)C(Cl)Cl	-2	·	·	1	-6	-4	3	·	6
30	c1ccc2c(c1)CCOC2CNCCCN1CCCCC1 (centres undefined)	-1	-5	5	·	-13	1	16	7	-2
31	CC1(C)S[C@@H]2[C@H](NC(=O)[C@H](N)c3ccc(O)cc3)C(=O)N2[C@H]1C(=O)O	-3	-3	2	-6	4	-5	19	2	-7
32	CCOc1cc(CN2CCOCC2)cc(C(C)=O)c1	-16	10	-2	1	11	6	-7	-3	0
33	Clc1ccc(/C=C/c2nc(Cl)c(-c3ccc(Cl)cc3)c(Cl)n2)cc1	-7	-30	1	·	-16	-2	5	-3	29
34	N#Cc1c(-c2ccco2)cc(C2CC2)nc1N	1	0	1	0	28	-2	12	0	2
35	NNC(=O)CNc1cccc(Br)c1	-2	-5	1	3	-4	8	-23	2	19
36	CC(=O)NS(=O)(=O)c1ccc(N)cc1	15	12	3	-3&4	7	-2	19	-6	-7
37	O=S(=O)(c1cccc2nsnc12)N1CCN(C/C=C/c2ccccc2)CC1	1	-8	3	7	24	-6	-5	-2	-3
38	Cc1cccn2c(=O)c3cc(C#N)c(=N)n(Cc4ccncc4)c3nc12	7	-2	0	-6	19	-4	12	-6	-3
39	COC(=O)[C@@H]1CC[C@H](C)[C@@H](c2ccc(C)cc2)N1C(=O)c1ccc(/C=N/OCC[C@@H]2C=C[C@H](OC(C)=O)[C@@H](COC(C)=O)O2)cc1	8	2	2	9	-18	0	-3	0	12
40	CC(C)COc1ccc(C(=O)OCCN2CCOCC2)c(O)c1	16	-13	-6	-5	-9	-1	11	-2	6
41	CNC(=O)C1CC(=O)N(Cc2ccccc2)C(=Nc2ccc(OC)cc2)S1 (centres undefined)	-1	-23	-2	5	-2	4	-3	2	0
42	CNCC[C@@H](Oc1ccccc1C)c1ccccc1	0	·	·	-4	1	-5	29	·	-14
43	CCCc1nc2n[nH]c(N)c2c2c1CCCC2	·	-2	-1	6	43	-4	16	3	-2
44	c1csc(Cc2nn3c(-c4ccncc4)nnc3s2)c1	5	-20	-2	-1	-1	-13	21	-5	-16
45	CCCCOc1cc(CC2CNC(=O)N2)ccc1OC (centres undefined)	7	·	·	-1	36	-5	-1	·	-16

# Records above marked active in Platelet DG rel.
no. | mol | Platelet DG rel | KLF5 inh | HSP90 inh | HDAC3 inhib | aSyn 5UTR inh | HSF1 inh | AI-2 QS mod | HSF1 activator
11 | OCC1OC(n2cnc3c(NC4CCCC4)ncnc32)C(O)C1O (centres undefined) | 82* | · | · | -14 | 2 | -6 | 0 | -21

# 3 entries drawn at random from those above, as already listed:
no.	canonical_smiles	Platelet DG rel	KLF5 inh	HSP90 inh	HDAC3 inhib	aSyn 5UTR inh	HSF1 inh	AI-2 QS mod	IEC-6 cytotox	HSF1 activator
38	Cc1cccn2c(=O)c3cc(C#N)c(=N)n(Cc4ccncc4)c3nc12	7	-2	0	-6	19	-4	12	-6	-3
35	NNC(=O)CNc1cccc(Br)c1	-2	-5	1	3	-4	8	-23	2	19
34	N#Cc1c(-c2ccco2)cc(C2CC2)nc1N	1	0	1	0	28	-2	12	0	2

# Further results follow:
no.	canonical_smiles	Platelet DG rel	KLF5 inh	HSP90 inh	HDAC3 inhib	aSyn 5UTR inh	HSF1 inh	AI-2 QS mod	IEC-6 cytotox	HSF1 activator
46	COc1cc(OC)cc(C(=O)N2CCC(N3CCN(c4ccccc4)CC3)CC2)c1	2	1	2	6	17	-6	20	-1	-9
47	Cc1cccc(N2CN=c3s/c(=C\c4ccncc4)c(=O)n3C2)c1	-4	-10	2	·	-52	-5	33	-3	2
48	c1ccc(CN2CCN(c3nc(-c4ccccn4)nc4ccccc34)CC2)cc1	·	-24	3	-6	0	-9	10	7	-6
49	O=C(NNC(=O)c1ccncc1)c1ccncc1	3	-21	4	3	12	·	31	-3	·
50	Cn1ncc(N=Cc2ccccc2)c1C(N)=O	6	-15	-1	3	-9	3	10	-9	13
51	COc1cc(C(=O)NCC(=O)n2nc(C)cc2C)cc(OC)c1OC	0	-19	-5	4	-17	-5	7	-5	7
52	COc1ccc(C=NCCCN2CCOCC2)cc1	-2	-34	-3	-1	-41	-5	10	-1	-8
53	CCOC(=O)NC(O)C(=O)c1cccs1 (centres undefined)	-3	-3	-1	1	1	-9	14	-4	-25
54	COCCOC(=O)C1=C(C)OC(N)=C(C#N)C1c1ccco1 (centres undefined)	-1	-24	-2	-4	5	-10	12	-6	3
55	COc1ccccc1N1CCN(CC(O)COc2cccc3ccccc23)CC1 (centres undefined)	15&1	2&-17	-3&-1	4&4	18&12	-3&2	9&12	6&1	2&-4
56	O=C(O)c1cc(=O)c2c(Cl)cc(Cl)cc2[nH]1	2	·	·	-3	7	-2	19	·	-10
57	Cn1c(=O)c2[nH]c(SCc3ccccn3)nc2n(C)c1=S	-14	-4	1	2	28	-2	-5	2	6
58	O=C1NC(c2cccc([N+](=O)[O-])c2)=CCN1c1ccccc1O	17	18	0	5	-1	2	13	0	2
59	CC1(C)C2CCC1(CS(=O)(=O)Nc1ccccc1)C(=O)C2 (centres undefined)	15	-3	3	-1	3	5	23	0	-6
60	C=CCNc1nc(-c2ccc(O)c(C(N)=O)c2)cs1	5	-10	1	4	-78	0	15	4	8
61	NC[C@@H]1O[C@H](O[C@H]2[C@@H](O)[C@H](O[C@@H]3[C@@H](O)[C@H](N)C[C@H](N)[C@H]3O[C@H]3O[C@H](CO)[C@@H](O)[C@H](O)[C@H]3N)O[C@@H]2CO)[C@H](N)[C@@H](O)[C@@H]1O	1	-5	-4	-3	-7	-3	4	-10	2
62	CC(=O)O[C@]1(C(C)=O)CC[C@H]2[C@@H]3C=C(C)C4=CC(=O)CC[C@]4(C)[C@H]3CC[C@@]21C	-8	14&4	3&6	·	-46	-8	6	8&13	-14
63	Cc1cc(C)n(CC2CC(=O)N(c3ccc(Cl)c(Cl)c3)C2=O)n1 (centres undefined)	8	-19	4	-7	7	0	39	5	15
64	CC(=O)NCCc1c[nH]c2ccc(O)cc12	-2	·	·	-8	-30	-1	19	·	6
65	CNc1oc(-c2ccc(Cl)cc2)nc1C#N	-3	-123	0	-126	-173	7	11	4	20
66	O=C1NC2c3ccccc3C(=O)N2c2c1cnn2-c1ccccc1 (centres undefined)	-19	-12	2	-15	11	-7	32	5	-25
67	CCN(CC)C(=O)CSC1=C(C#N)C(c2cccs2)C=C(C)N1 (centres undefined)	-12	-6	-2	17	12	4	43	1	35
68	O=C1CC(NCc2ccncc2)C(=O)N1c1ccc(Cl)cc1 (centres undefined)	-3	-38	1	4	2	-1	-4	-2	-2
69	Cc1cc(C)n(C(=O)CNC(=O)c2cccs2)n1	-16	-4	0	-8	-23	?	-9	0	-57
70	COc1ccc(/C(O)=C2/C(=O)C(=O)N(CCCN(C)C)C2c2cccc(Cl)c2)cc1OC (centres undefined)	-6	5	0	-2	0	-9	-2	0	13
71	C[C@]12C[C@H](O)[C@H]3[C@@H](CCC4=CC(=O)CC[C@@]43C)[C@@H]1CC[C@@H]2C(=O)CO	0	-2	1	-1	-52	-31	17	5	-40
72	N#CCc1nc2c3c4c(sc3ncn2n1)CCCC4	3	0	-4	·	34	3	33	-3	-1

# Values in list order from the entries so far.
# KLF5 inh, compounds 62 to 69: 14&4, -19, ·, -123, -12, -6, -38, -4
# HSF1 activator, compounds 62 to 69: -14, 15, 6, 20, -25, 35, -2, -57
